Menin-MLL FL inh – inhibitors of human menin-MLL interaction, wild-type MLL peptide | FP activity change, % at 61.4 µM | 290,000 tested, under 10 active | Fluorescence polarization, fluorescein-MLL peptide displacement from menin; inconclusive = falling polarisation curve, or a change in total fluorescence; inactive = total fluorescence flat and polarisation flat or rising; no compound was filed as active; the % refers to the polarisation; negative = inhibition;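 further: % of control where 0% means no effect; inhibitors lower the polarisation; unlabelled MLL peptide was the positive control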
Sfp PPTase inh – blocks B. subtilis Sfp PPTase activity. Q9F4F7. Biochemical Sfp PPTase activity, qHTS. Potency, µM, for inactives: max response, negative = inhibition, hits mostly inhibitors. 310,000 tested, 3.5% active. AID 1490; active means well fitted inhibition curve with a large enough effect; inconclusive means small, poorly fitted or top-dose-only effect, or another doubt; inactive means no such curve, though single readings can be large or run the other way;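 further: the enzyme is Sfp with the accession as filed and its product quenches rhodamine fluorescence; potency means the concentration at half of the fitted maximal effect; 0% = enzyme reaction without inhibitor and -100% = no enzyme wells; top concentration of the series not given in the record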
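Reaction rates are the 30-min fluorescence difference (ex 525, em 598 nm) in wells containing 15 nM Sfp, 5 uM rhodamine-CoA and 12.5 uM BHQ-2-YbbR at pH 7.6 with 10 mM MgCl2.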
Starred values were filed as active, the others as inactive; u = inconclusive; & = joins results of further samples; [ ] = another dose, or the depositor's remark. Some of the compounds tested. The share of hits here may be higher or lower than overall.

Every second line gives: Menin-MLL FL inh, Sfp PPTase inh
CCOc1ccc(-n2c(Cc3cc(=O)[nH]c(=O)[nH]3)nnc2SC(C)C(=O)OC)cc1 (stereo not given)
 : -0.7, 14%
CCN1C(=NCC(C)C)N[C@@H](c2ccccc2)[C@H](C(=O)OC)[C@H]1C
 : 2.4, 22%
C[C@@H]1C=C[C@](Cc2ccccc2)(C(=O)NCCCNc2ncc(C(F)(F)F)cc2Cl)N1C(=O)c1ccccc1
 : -0.2, 9%
CC(=O)N[C@@H](CC(C)C)C(=O)N[C@@H](CCCNC(=N)N)C(=O)N[C@@H](Cc1cnc[nH]1)C(=O)N[C@@H](Cc1ccc(O)cc1)C(=O)N[C@@H](CC(C)C)C(=O)N[C@@H](CC(N)=O)C(=O)N[C@@H](CC(C)C)C(=O)N[C@@H](CC(C)C)C(=O)N[C@H](C(=O)N[C@@H](CCCNC(=N)N)C(=O)N[C@@H](CCC(N)=O)C(=O)N[C@@H](CCCNC(=N)N)C(=O)N[C@@H](Cc1ccc(O)cc1)C(N)=O)[C@@H](C)O
 : -1.7, 4%
Cc1c(C(=O)NN2CCCCC2)nn(-c2ccc(Cl)cc2Cl)c1-c1ccc(Cl)cc1
 : -0.9, -12%
COc1cccc2oc(-c3ccccc3)cc(=O)c12
 : -0.3&-20, 7%&12%
CCC(=O)Oc1ccc2c(c1)CCC1C2CC[C@]2(C)C(OC(=O)CC)CCC12 (stereo not given in full)
 : 1.1, -9%
C/C(CCN1CCCc2nc(C)c(C)cc21)=N\O[C@@H](C)CN1CCCc2nc(C)c(C)cc21
 : 1.6[11.7 µM], 2%
CNCC(O)c1cccc(O)c1 (stereo not given)
 : -2.0, -8%
COC(=O)[C@@H]1C[C@@]2(O)[C@H](O)[C@H](O)[C@H](O)C[C@H]2N1Cc1ccc(N2CCOCC2)cc1
 : -0.5, 5%

More compounds follow:
Every second line gives: Menin-MLL FL inh, Sfp PPTase inh
COc1ccc(C(C#N)Nc2ccccc2)cc1 (stereo not given)
 : 1.6, 10%
CCC(C)c1ccc(O[C@@H]2O[C@H](CO)[C@@H](O)[C@H](O)[C@H]2NC(C)=O)cc1 (stereo not given in full)
 : -2.0, 7%
COc1cc2c(cc1OC)C1O[C@](CCCCN3C(=O)c4ccccc4C3=O)(C2)Oc2cc(C)n(Cc3ccccc3)c(=O)c21
 : -0.7[11.7 µM], -6%
NC(=O)c1cc[n+](CC2=C(C(=O)O)N3C(=O)C(NC(=O)C(c4ccccc4)S(=O)(=O)[O-])C3SC2)cc1 (stereo not given)
 : -0.6, -54%
CCN1C(=O)[C@H]2[C@H]3[C@H](O)[C@H](O)C/C(=N/OC/C=C(\C)CCC=C(C)C)[C@@H]3CC[C@@H]2C1=O
 : 3.9[11.7 µM], 18%
Nc1nc2c(c(=O)[nH]1)N(C=O)[C@H](CNc1ccc(C(=O)N[C@@H](CCC(=O)O)C(=O)O)cc1)CN2
 : -3.3[24.8 µM], 22%
CC(=O)c1cc2c(cc1O)OC(C)(C)C=C2
 : 1.2, -3%
Oc1ccc(O)c(/C(=N/Nc2ccccc2)c2ccccc2)c1
 : -24, -25%
CCOP(=O)(OCC)C(=Cc1cc(C(C)(C)C)c(O)c(C(C)(C)C)c1)P(=O)(OCC)OCC
 : -1.3, -10%
CC(=O)OC[C@@H]1O[C@@H](O/N=C2/C[C@@H](O)[C@@H](O)[C@@H]3[C@@H]4C(=O)N(C[C@@H]5CCCO5)C(=O)[C@H]4CC[C@H]23)[C@H](OC(C)=O)[C@H](OC(C)=O)[C@@H]1OC(C)=O
 : 1.7[11.7 µM], -8%

(continued)
Every second line gives: Menin-MLL FL inh, Sfp PPTase inh
COc1ccc([C@]23Cc4ccccc4C(O2)c2c(cc(-c4ccccc4)oc2=O)O3)cc1
 : u, 8%
O=C1CSC(c2cn(-c3ccccc3)nc2-c2cccs2)N1Cc1ccccc1 (stereo not given)
 : 0.2, 1%
CCCc1nc2sc3c(=O)[nH]cnc3c2c2c1CCCC2
 : 0.7, 5%
Cc1cc(O)c(C)c(O)c1C(=O)O
 : -9.7, 0%
COC(=O)NC(c1ccccc1)c1c[nH]c2ccccc12 (stereo not given)
 : -2.5, 9%
CC1(C)S[C@@H]2[C@H](NC(=O)C3(N)CCCCC3)C(=O)N2[C@H]1C(=O)O
 : 1.8[24.8 µM], -23%
CCN(CC)CCCNC(=O)c1ccc2c(SCC(=O)O)c3c(nc2c1)CCC3
 : 0.9, 0%
Cc1ncc(COP(=O)(O)O)c(C=O)c1O
 : 3.2, -7%
COc1cc(OC)cc(C2=Nn3c(nnc3-c3ccccc3OC)SC2)c1
 : u, -2%
C[C@@]1(C(NC(=O)Cc2ccc(C(F)(F)F)cc2)c2ccc(-c3ccccc3)cc2)C[C@H]1C1CCCCC1 (stereo not given in full)
 : 1.4, 28%

Looked up by structure from above:
Every second line gives: Menin-MLL FL inh, Sfp PPTase inh
Nc1nc2c(c(=O)[nH]1)N(C=O)[C@H](CNc1ccc(C(=O)N[C@@H](CCC(=O)O)C(=O)O)cc1)CN2
 : -3.3[24.8 µM], 22%
CCN1C(=O)[C@H]2[C@H]3[C@H](O)[C@H](O)C/C(=N/OC/C=C(\C)CCC=C(C)C)[C@@H]3CC[C@@H]2C1=O
 : 3.9[11.7 µM], 18%
CCCc1nc2sc3c(=O)[nH]cnc3c2c2c1CCCC2
 : 0.7, 5%
O=C1CSC(c2cn(-c3ccccc3)nc2-c2cccs2)N1Cc1ccccc1 (stereo not given)
 : 0.2, 1%
Cc1cc(O)c(C)c(O)c1C(=O)O
 : -9.7, 0%
NC(=O)c1cc[n+](CC2=C(C(=O)O)N3C(=O)C(NC(=O)C(c4ccccc4)S(=O)(=O)[O-])C3SC2)cc1 (stereo not given)
 : -0.6, -54%
COc1cc(OC)cc(C2=Nn3c(nnc3-c3ccccc3OC)SC2)c1
 : u, -2%

Continued:
Every second line gives: Menin-MLL FL inh, Sfp PPTase inh
CCCCCCCCCCCCCC[N+](C)(C)C
 : -0.7, 11µM*
COc1ccc2c(COC(=O)CCS(=O)(=O)c3ccccc3)cc(=O)oc2c1
 : 6.1, 4%
CCN(CC)CCC(c1ccc(N(C)C)cc1)c1c(OC)cc(OC)c2c1OC(=O)CC2c1ccc(N(C)C)cc1 (stereo not given)
 : 10, 9%
O=C(Nc1cc(C(=O)Nc2ccc(S(=O)(=O)O)cc2)cc(C(=O)Nc2ccc(S(=O)(=O)O)cc2)c1)Nc1cc(C(=O)Nc2ccc(S(=O)(=O)O)cc2)cc(C(=O)Nc2ccc(S(=O)(=O)O)cc2)c1
 : 1.4, -7%
CCCCn1nc(-c2ccccc2)c2nc3ccccc3nc21
 : u, -7%
COc1cc(OC)c(NC(=O)Nc2cc(C)on2)cc1Cl
 : -3.7, 12%
Cc1ccc(S(=O)(=O)c2cc3c(=O)n4cccc(C)c4nc3n(CC3CCCO3)c2=N)cc1 (stereo not given)
 : 6.5, 6%
CCOc1ccccc1CNC(=O)C1CCCN(c2nc3ccccc3o2)C1 (stereo not given)
 : -1.0, 1%
CCOC(=O)C1=C(C)N=C2SCCC(=O)N2C1c1ccc(OC)cc1 (stereo not given)
 : 2.6, -5%
COC(=O)CN1C(=O)[C@@H]2[C@H](C1=O)[C@@H]1CC(C(=O)OC)=C[C@@H](C(=O)OC)C3C1=C(C(=O)[C@]3(C)NC(=O)c1ccccc1)[C@@H]2C (stereo not given in full)
 : -1.6, -3%

(next part)
Every second line gives: Menin-MLL FL inh, Sfp PPTase inh
CCNC(=S)Nc1cccc([N+](=O)[O-])c1
 : -1.3, 1%
O=C(O)c1ccc2c(c1)C(=O)N([C@H](Cc1c[nH]c3ccccc13)C(=O)O)C2=O
 : -0.5, 15%
NC(=O)[C@H]1CCCN1C(=O)[C@H](Cc1cnc[nH]1)NC(=O)[C@@H]1CCC(=O)N1
 : 0.1, -14%
CN(N=O)C(=O)N[C@H]1C(O)C(O)C(CO)O[C@@H]1O (stereo not given in full)
 : -0.5, 12%
O=C(COC(=O)c1cc(-c2ccncc2)nc2ccccc12)Nc1ccc2c(c1)OCO2
 : 0.7, 17%
COc1ccc(-c2nnc3sc(-c4ccc(Br)o4)nn23)cc1OC
 : -0.5, -1%
COc1cc(OC)cc(-c2nnc(Sc3ccc(C=O)cc3[N+](=O)[O-])o2)c1
 : -1.3, 1%
O=C(O)CCCC[C@@H]1SC[C@H]2NC(=O)N[C@@H]12
 : -5.7, 12%
O=C(c1ccc(CS(=O)(=O)c2ccc(Br)cc2)o1)N1CCN(C2CCCCC2)CC1
 : 2.9, -12%
O=C(C1=C[C@@H]2[C@H]3C(=O)N(c4ccccc4)C(=O)[C@H]3[C@@H](C(=O)c3ccc(Cl)cc3)N2C=C1)c1ccccc1
 : u, -9%

(more compounds)
Every second line gives: Menin-MLL FL inh, Sfp PPTase inh
CCCCCC1=C2CNC(CCC)(C(=O)OC)C=C2C(C)C1=O (stereo not given)
 : u, -7%
C=CCOC(=O)N[C@@H](CC(C)C)/C(C(=O)OC)=C(\C)NCc1ccccc1
 : 1.2, -9%
COc1cc2cc(Oc3ccc4ccc(=O)oc4c3)c(=O)oc2cc1OC(=O)C=C(C)C
 : -1.1, -5%
NC(N)=NC[C@@H]1COC2(CCCCC2)O1
 : 1.6[24.8 µM], 16%
CN(C)CCN(C)Cc1ccc2c(c1)Cc1ccccc1-2
 : 0.0, 2%
CCc1c2c(nc3cccc(SC)c13)COC2
 : 1.0, -3%
O=C(O)c1ccc(S(=O)(=O)N[C@H](Cc2ccc(O)cc2)C(=O)O)cc1
 : 13, 18%
CCn1c(C)nc2cc(C(=O)NNC(=O)Nc3ccc(Cl)c(Cl)c3)ccc21
 : 2.0, -10%
COc1ccc(-c2nnc3ccc(SCC(=O)Nc4cc(C)on4)nn23)cc1
 : 0.4, -16%
CCc1ccc(NC(=O)c2nc(S(=O)(=O)Cc3ccccc3)ncc2Cl)cc1
 : -7.9, -26%

Additional results follow:
Every second line gives: Menin-MLL FL inh, Sfp PPTase inh
Cc1cccc(N2CCN(S(=O)(=O)c3ccc4[nH]c(=O)c(=O)[nH]c4c3)CC2C)c1 (stereo not given)
 : -0.9, 11%
COc1cc(OC)cc(C(=O)NCCSCc2ccco2)c1
 : 1.5, 9%
COC(=O)CCC(=O)OC1(C)C(=O)C=C2C=C(CCCNC(=O)OC(C)(C)C)OC=C2C1=O (stereo not given)
 : 1.0, 5%
Cc1ccc2oc(-c3ccccc3)c(O)c(=O)c2c1
 : -13, 1%
Cc1ccc(S(=O)(=O)N2CC=C(C(=O)NCc3ccc(F)cc3)CC2)cc1
 : 1.3, u
CCO[C@H](c1cc(OC)cc([N+](=O)[O-])c1OC)[C@H](C)/C=C\CC(=O)OC
 : 0.6[11.7 µM], 6%
CO[C@@H]1COC(=O)CCC[C@@H](C)[C@H](OC)COC(=O)[C@H](Cc2ccccc2)NC(=O)C/C=C\[C@H]1C
 : -3.4[11.7 µM], 11%
CC1=CC(=O)C2=C(C)CCC3C(C)C(=O)OC3C12 (stereo not given)
 : u, 2%
C[C@H]1[C@H]2CC[C@H]3C4CC=C5C[C@@H](N(C)C)CC[C@]5(C)C4CC[C@]23CN1C (stereo not given in full)
 : -6.8, 13%
CCN(CC)c1ccc(/C=N/NC(=O)C(O)(c2ccccc2)c2ccccc2)o1
 : 10, 7.1µM*

The list continues:
Every second line gives: Menin-MLL FL inh, Sfp PPTase inh
Cc1cc(C)c(S(=O)(=O)OC[C@H]2C=CC[C@@H](CCC[C@H]3O[C@H](C(=O)OC(C)C)CC[C@@H]3C)O2)c(C)c1
 : -2.1, -8%
Cn1cccc1/C=N/NC(=O)c1sc2cc(Cl)ccc2c1Cl
 : 8.4, 16%
C[C@]12CCC3c4ccc(OS(=O)(=O)O)cc4CCC3C1CCC2=O (stereo not given in full)
 : 3.9, 4%
COC(=O)[C@@H]1[C@@H](O)[C@]2(O)c3ccccc3O[C@]2(c2ccccc2)[C@H]1c1ccccc1
 : -0.3[11.7 µM], -7%
COC(=O)C1=C(C)N(Cc2ccccc2)C2=C3C(=O)OCCC3[C@@](O)(C(=O)OC)C(=O)N2C1c1ccccc1 (stereo not given in full)
 : 0.4[11.7 µM], u
O=C(O)CCCC/C=C\C[C@@H](O)/C=C/C=C/C=C\[C@@H](O)CCCC(=O)O
 : -3.5, -13%
CCCCCCCCCCCCSCCOCCO
 : 2.7, 10%
CCc1cc2c(=O)c(-c3cscn3)coc2cc1OC
 : 6.5, -3%
Cc1ccccc1NC(=O)c1ccc(Cl)c(NC(=O)c2cccnc2)c1
 : -0.2, 6%
O=C(CN1C(=O)NC2NC(=O)NC21)N/N=C/c1ccccc1F (stereo not given)
 : 2.0, 3%

Later entries.
Every second line gives: Menin-MLL FL inh, Sfp PPTase inh
COc1ccc(C2c3c(ccc4ccccc34)Oc3ncn4nc(Cc5ccc(OC)c(OC)c5)nc4c32)cc1 (stereo not given)
 : 2.0, 6%
C[C@]12CCC(=O)C=C1CCC1C2C(O)C[C@]2(C)C1CC[C@]2(O)C(=O)COC(=O)CCC(=O)O (stereo not given in full)
 : 0.4, 12%
CCCCC(CC)COS(=O)(=O)O (stereo not given)
 : 0.3, -3%
COc1ccc2c(=O)c3c(=O)n(-c4ccc(C)cc4)c(-c4ccccc4)nc3oc2c1
 : 1.3, 16%
Cc1ccc(S(=O)(=O)c2cc3c(=O)n4cccc(C)c4nc3n(Cc3ccco3)c2=N)cc1C
 : 0.5, -21%
Clc1ccc(N2CCN(Cc3cc4ccccn4n3)CC2)cc1
 : -0.1, 8%
Cc1ccnc(NS(=O)(=O)c2cc(C(F)(F)F)ccc2Cl)c1
 : 4.8, 4%

High-throughput results deposited in PubChem by National Center for Advancing Translational Sciences (NCATS).
